Bioassay records (PubChem BioAssay)
TRPML1 inh: blocks the human TRPML1 channel. Q9GZU1. TRPML1-inducible cells, Ca2+ dye fluorescence, FDSS; hits give low values; inhibition of EC80 agonist-evoked calcium signal. activity change, negative = inhibition, % (concentration not given with the values). actives 0.02% (n = 390,000). AID 624415; in the data active means activity change below about -50%; inconclusive means about -30% to -50%; inactive means above about -30%;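 note: stimulus is agonist 54-4 at its EC80 concentration; % is set by controls: 0 for no effect and ±100 for the full control effect; compound concentration not given in the record; the text of the record puts the active cut at -80%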
Target sequence (Q9GZU1 whole entry, looked up): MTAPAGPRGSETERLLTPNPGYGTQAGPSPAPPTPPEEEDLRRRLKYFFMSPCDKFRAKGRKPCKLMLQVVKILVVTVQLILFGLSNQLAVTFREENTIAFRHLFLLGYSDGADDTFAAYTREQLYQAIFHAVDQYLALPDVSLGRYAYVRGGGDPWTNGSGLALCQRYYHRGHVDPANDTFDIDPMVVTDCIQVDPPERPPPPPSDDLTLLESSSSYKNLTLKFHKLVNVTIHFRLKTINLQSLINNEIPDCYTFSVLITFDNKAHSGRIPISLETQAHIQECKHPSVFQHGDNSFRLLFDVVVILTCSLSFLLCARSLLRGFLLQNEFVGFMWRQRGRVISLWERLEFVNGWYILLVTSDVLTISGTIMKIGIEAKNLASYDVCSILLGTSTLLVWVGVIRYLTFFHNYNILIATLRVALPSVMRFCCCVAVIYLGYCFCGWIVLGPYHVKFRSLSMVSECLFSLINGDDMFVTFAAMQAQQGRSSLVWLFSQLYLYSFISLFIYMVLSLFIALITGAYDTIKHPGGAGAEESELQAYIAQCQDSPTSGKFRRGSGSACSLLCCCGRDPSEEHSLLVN
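Tet-induced TRPML1-DL cells loaded with Ca8 no-wash calcium dye were read kinetically on FDSS. Compound addition was followed by EC80 agonist 54-4 (4 uM final); inhibition was read over 110 s.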
D2 ag: activates the human D2 dopamine receptor | DiscoveRx PathHunter D2 beta-arrestin, luminescence, 90 min; 100% = 57 uM dopamine signal | actives 0.084% (n = 360,000) | activation, % (no concentration beside the values) | AID 624465 | P14416; in the data active = activation above about 40%; inconclusive = about 15% to 40%; inactive = below about 15%; note: compound concentration not given in the record; the text of the record calls up to 30% inactive
Target sequence (P14416 whole entry, looked up): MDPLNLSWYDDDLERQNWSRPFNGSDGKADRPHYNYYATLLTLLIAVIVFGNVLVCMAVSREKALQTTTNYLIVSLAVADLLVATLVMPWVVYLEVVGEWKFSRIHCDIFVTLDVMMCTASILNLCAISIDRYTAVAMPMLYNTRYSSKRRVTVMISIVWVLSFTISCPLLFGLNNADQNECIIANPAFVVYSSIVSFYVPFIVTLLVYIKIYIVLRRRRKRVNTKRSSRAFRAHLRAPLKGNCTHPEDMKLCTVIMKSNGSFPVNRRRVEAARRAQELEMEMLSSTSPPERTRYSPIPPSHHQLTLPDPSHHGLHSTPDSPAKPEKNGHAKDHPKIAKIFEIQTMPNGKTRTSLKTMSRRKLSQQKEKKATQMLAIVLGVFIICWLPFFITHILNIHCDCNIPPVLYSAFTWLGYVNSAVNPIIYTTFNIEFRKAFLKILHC
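DiscoveRx PathHunter D2 beta-arrestin cells (2,100/well) attached overnight, then compound-stimulated 90 min at 37 C in HBSS/10 mM HEPES/0.1% Tween-20 buffer; beta-galactosidase complementation read by luminescence after 1 h at ambient temperature. Dopamine 57 uM final (EC100) as control.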
TRPML1 agonist: activates the human TRPML1 channel | Q9GZU1 | TRPML1-expressing cells, Ca2+ dye fluorescence, FDSS; host cell line not named in the record; reference of the full effect not given here | activation, % (test concentration not listed) | actives 0.12% (n = 410,000); in the data active = activation above about 50%; inconclusive = about 30% to 50%; inactive = below about 30%; note: 0% is about no effect; the text of the record puts the active cut at 80%
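Kinetic FDSS Ca2+ read in Tet-induced TRPML1-DL cells (ABD Ca8 dye plus quencher, 45-90 min RT loading): baseline, then compound, then 110 s agonist window; EC80 agonist 54-4 at 4uM final added afterwards for a 110 s antagonist window.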
PINK1 expr mod: PINK1 expression modulation; PINK1 immunofluorescence, high-content cytometry, 24 h; Potency, µM (titrated, usually from 76.6 µM), for the others: at the highest dose activation (PINK1 increase), hits mostly activators; actives 0.2% (n = 410,000); active = well fitted activation curve with a large enough effect; inconclusive = small, poorly fitted or top-dose-only effect; inactive = flat fitted curve, though single readings scatter; cell line not stated here;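 note: potency is the fitted concentration of half-maximal effect; % of control where 0% means no effect; nearly all actives have a fitted effect of over 65% in size; a mitochondrial uncoupler was the plate control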
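Stable cell line treated 24 h with compounds at 5 concentrations (CCCP controls), then fixed and immunostained for PINK1 plus nuclear and cell stains; PINK1 immunofluorescence quantified by laser-scanning microplate cytometry.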
Six1-Eya2 inh: Six1/Eya2 interaction inhibition. actives 0.56% (n = 360,000). activity change, % (concentration not given with the values). AlphaScreen GST-Six1/His-Eya2 binding, biochemical; hits give low values; control for the full effect not named in the record. Q15475+O00167; in the data active = activity change below about -65%; inconclusive = about -30% to -65%; inactive = above about -30%; note: % is set by controls: 0 for no effect and ±100 for the full control effect
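Six1/Eya2 binding was read as AlphaScreen signal after compounds were pinned into GST-Six1 plus His-tagged Eya2 (5X stock 250/500 nM) in pH 8.0 Tris/NaCl/TCEP buffer, beads added, then incubated 1 h, 37 C, dark.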
D2 PAM: positive allosteric modulators of human D2 dopamine receptor; P14416; DiscoveRx D2 beta-arrestin cells, luminescence, 90 min; 100% = 57 uM dopamine signal; potentiation, % (test concentration not listed); actives 0.23% (n = 360,000); AID 624464; active = potentiation of 50% or more; inconclusive = 30% to 50%; inactive = 30% or less;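 note: compound concentration not given in the record; tested on top of an EC20 dose of dopamine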
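PathHunter D2 cells, attached overnight at 37 deg C, received compound in DMSO plus dopamine at EC20 (50 nM final) for 90 min at 37 deg C. Beta-arrestin recruitment was read as luminescence after 1 h with detection reagent at ambient temperature.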
The depositor's hits bear a star; ? = inconclusive; . = not tested or not shown; [ ] = remark or other dose.

SMILES	TRPML1 inh	D2 ag	TRPML1 agonist	PINK1 expr mod	Six1-Eya2 inh	D2 PAM
Cc1ccc(N(C(=O)C(F)(F)F)C(C(=O)NC2CCCCC2)c2cccs2)cc1C (stereo unspecified)	16	-1.0	0.8	?	3	0
C=CCNC(=O)Nc1ccc2oc(C)nc2c1	-11	1.3	0.8	.	2	12
CC(C)(CO)C(O)C(=O)NCCC#N (stereo unspecified)	14	-0.9	-0.3	0.8%	-4	2
COc1ccc2cc(/C=C/C(=O)N3CCN(CC(=O)N4CCCCCC4)CC3)ccc2c1	13	6.3	-1.0	-0.3%	-7	-10
O=C(OCCc1ccccc1)c1cc(O)c(O)c(O)c1	0	2.8	1.5	-0.1%	-2	7
Cc1cccc(N2C(=O)CCSC23C(=O)N(Cc2ccc(F)cc2)c2ccccc23)c1 (stereo unspecified)	-10	.	1.9	6.0%	.	.
CCCCCNC(=O)C(=O)C1C(=O)Nc2ccccc21 (stereo unspecified)	-5	1.5	0.2	-0.7%	5	-4
Cc1ccc(C2NC(=O)c3sc(=S)n(-c4ccccc4)c3N2)cc1 (stereo unspecified)	31	-6.5	0.1	0.9%	-2	-17
CCOc1ccccc1N(CC(=O)N1CCN(Cc2ccccc2)CC1)S(=O)(=O)c1ccccc1	-9	-3.5	-0.5	2.4%	0	-30
CC(=O)NC(Cc1ccccc1)Cc1ccccc1	-7	-1.2	-0.4	5.3%	-17	-6

A stretch from the list above, as a working copy:
SMILES	TRPML1 inh	D2 ag	TRPML1 agonist	PINK1 expr mod	Six1-Eya2 inh	D2 PAM
COc1ccc2cc(/C=C/C(=O)N3CCN(CC(=O)N4CCCCCC4)CC3)ccc2c1	13	6.3	-1.0	-0.3%	-7	-10
O=C(OCCc1ccccc1)c1cc(O)c(O)c(O)c1	0	2.8	1.5	-0.1%	-2	7

Next part:
SMILES	TRPML1 inh	D2 ag	TRPML1 agonist	PINK1 expr mod	Six1-Eya2 inh	D2 PAM
COC(=O)c1cccc(NC(=O)N(C)CCc2c(C)nn(C)c2C)c1	-13	.	-0.4	0.1%	.	.
O=C(NC1(C(F)(F)F)NC(=O)N(Cc2ccccc2)C1=O)c1cccs1 (stereo unspecified)	9	1.4	0.3	-1.8%	9	5
Cc1c(Br)c([N+](=O)[O-])nn1CC(=O)N1CCN(C23CC4CC(CC(C4)C2)C3)CC1	7	0.1	-0.9	-1.9%	-7	-12
NC(c1csc(Nc2ccccn2)n1)C1CCCCC1 (stereo unspecified)	30	-0.9	-0.2	5.1%	?	-28
CC(=O)N1CCN(c2ccc(NC(=O)c3cccc(Cl)c3Cl)cc2)CC1	-16	2.2	0.1	-1.4%	?	-3
Cc1ccc(NC(=O)/C(=C\c2cccnc2)NC(=O)c2ccccc2)cc1	8	-2.3	0.8	0.1%	3	-12
O=[N+]([O-])c1ccc(/C=C/c2ccc3cccc([N+](=O)[O-])c3n2)cc1	21	5.8	1.1	7.5%	-19	-6
COc1cc2c(C(=O)NCCCOC(C)C)cn(CC(C)C)c(=O)c2cc1OC	-9	-2.6	-0.8	-0.8%	1	-9
Cc1cccc(-c2ccc3c(c2)C2CC3CCN2C(=O)OCc2ccccc2)c1 (stereo unspecified)	-5	-2.2	3.5	2.9%	10	0
N#C/C(=C(/O)CCl)c1nnc2n1CCCCC2	-2	-0.3	0.0	1.0%	-3	-8

Sorted by number of heavy atoms (smallest number first): part of the list above.
SMILES	TRPML1 inh	D2 ag	TRPML1 agonist	PINK1 expr mod	Six1-Eya2 inh	D2 PAM
CC(C)(CO)C(O)C(=O)NCCC#N (stereo unspecified)	14	-0.9	-0.3	0.8%	-4	2
CCCCCNC(=O)C(=O)C1C(=O)Nc2ccccc21 (stereo unspecified)	-5	1.5	0.2	-0.7%	5	-4
Cc1ccc(NC(=O)/C(=C\c2cccnc2)NC(=O)c2ccccc2)cc1	8	-2.3	0.8	0.1%	3	-12

(further entries)
SMILES	TRPML1 inh	D2 ag	TRPML1 agonist	PINK1 expr mod	Six1-Eya2 inh	D2 PAM
CC(=O)N1CCN(c2ccccc2NC(=O)c2ccc(Br)o2)CC1	-7	-2.5	-0.5	0.3%	-7	-14
O=C(Nc1cccc(S(=O)(=O)N2CCCCCC2)c1)c1ccc(Cl)nc1	34	3.9	-1.3	7.4%	?	-3
O=C(NCCc1ccc(C(F)(F)F)cc1)C1CCC(=O)N(CCCc2ccccc2)C1 (stereo unspecified)	-5	-5.9	0.2	0.7%	0	-12
CCC1CCCCN1S(=O)(=O)c1ccc(C(=O)N(CCCN(C)C)c2nc3cc4c(cc3s2)OCO4)cc1 (stereo unspecified)	0	-1.4	2.9	-1.4%	-28	-35
Cc1cc(C)cc(NC(=S)NCc2ccncc2)c1	-11	-2.7	-0.9	-0.2%	4	-17
O=C(/C=C/c1cccc([N+](=O)[O-])c1)NCCSCc1cccc(Cl)c1	26	-0.3	3.6	-0.4%	-11	-12
COc1ccc(-c2ccc(NS(=O)(=O)c3cc([N+](=O)[O-])c(C)c([N+](=O)[O-])c3)cc2)nn1	8	?	0.2	1.2%	-8	0
CCOC(=O)c1ccc2ncc(-c3ccccc3)nc2c1	-2	-2.3	3.8	2.9%	8	0
O=C(O)CCN(CCC(=O)O)c1nnc(SCc2ccccc2)s1	16	-2.8	-0.2	0.1%	7	-14
Cc1cc(C)nc(Nc2n[nH]c(COc3cccc4ccccc34)n2)n1	7	-5.5	-0.2	14%	-1	-9
Cc1ccc(C)c(OCCC(=O)OCC(=O)N2CCN(c3ccccc3)CC2)c1	4	-1.3	3.0	0.2%	3	11
C#CCN1C(=O)S/C(=C/C=C/c2ccc(N(C)C)cc2)C1=O	5	-4.5	28	15%	-20	3
CC(CCc1ccccc1)NC(=O)COC(=O)c1cccc(N(C)C)c1 (stereo unspecified)	-8	0.7	0.5	1.7%	-9	-6
Cc1cccc(OCCCn2c(CCNC(=O)C(C)C)nc3ccccc32)c1	7	-4.0	2.2	-0.3%	1	-3
CCCC(=O)N(CCc1ccc(OC)cc1)Cc1nc2ccccc2c(=O)[nH]1	17	0.1	0.2	9.1%[38.3 µM]	3	-6
Cc1ccc(OCC(=O)NNC(=O)c2ccc3c(=O)n4c(nc3c2)CCC4)cc1	-12	-1.6	0.0	0.8%	?	-9
CCOC(=O)[C@]12CCC=C1N(Cc1ccccc1)C(=O)[C@H](CC(=O)NCC13CC4CC(CC(C4)C1)C3)C2	.	.	-0.8	5.1%	-10	.
O=C(c1ccc([N+](=O)[O-])cc1[N+](=O)[O-])n1cnc2ccccc21	-5	?	1.3	0.0%	3	24
Cc1nc2sc(C)c(C)n2c(=O)c1S(=O)(=O)NCCc1ccc(Cl)cc1	30	.	0.5	1.9%	.	.
CC(C)CN1CN(Cc2ccccc2)CNC1=S	22	-7.9	-0.2	-0.1%	4	-4
CC1CCCCN1CC(=O)Nc1ccc2c(c1)OC(F)(F)O2 (stereo unspecified)	1	-1.4	2.7	6.0%	1	-9
S=C(Nc1cccc(Br)c1)c1ccccc1	-7	-3.1	2.3	?	-4	-2
O=C(Nc1ccccc1)c1ccc(S(=O)(=O)N2CCOCC2)cc1	21	-4.9	0.3	-0.5%	4	-3
Cc1cccc(C(=O)N2CCCC(c3nc(-c4ccc(C)o4)no3)C2)c1 (stereo unspecified)	-11	-3.0	0.1	0.2%	-1	-5
CC(=O)NS(=O)(=O)c1ccc(NC(=S)Nc2ccccc2)cc1	16	-3.6	-0.2	-0.4%	-3	-6
O=C1C(=O)c2ccccc2C(O)=C1CCCCl	4	4.4	2.2	-5.4%	-10	10
CCOC(=O)CSc1nc2cc3c(cc2c(=O)n1Cc1ccc(C(=O)NCCc2ccc(OC)c(OC)c2)cc1)OCO3	?	.	1.1	0.6%	.	.
Nc1nc(Cl)cc(=O)n1Cc1ccc(Cl)cc1	28	-0.4	-1.0	0.7%	-1	-15
O=C(CSc1ncc(S(=O)(=O)c2ccc(Cl)cc2)c(=O)[nH]1)Nc1ccc2c(c1)OCCO2	-20	.	0.7	-1.7%	.	.
CN(C)NC(=O)C(NC(=O)c1ccc(N)cc1)C12CC3CC(CC(C3)C1)C2 (stereo unspecified)	-2	-2.0	-0.1	2.4%	1	-3
CC(CCc1ccccc1)NC(=O)CN1CCN(Cc2ccccc2)C1=O (stereo unspecified)	15	-2.0	1.0	4.1%[38.3 µM]	6	-4
CC(=O)Nc1ccc(S(=O)(=O)N2CCN(C(=O)N3CCCCC3)CC2)cc1	24	3.7	0.5	1.2%	16	-3
COc1ccc(S(=O)(=O)N2CCCC(C(=O)NCc3ccncc3)C2)cc1 (stereo unspecified)	-1	-2.4	-0.5	-1.2%	1	4
Cc1ccc(C)c(Cn2c(=O)cc(C)c3c(C)nn(C)c32)c1	10	.	1.9	12%	.	.
Cc1cc(C(=O)OCC(=O)NCCc2ccccc2)c2ccccc2n1	-2	-4.4	0.6	2.8%	5	1
Cc1ccc(C(=O)NCCc2nnc(SCC(=O)Nc3cccc(C(=O)O)c3)n2C)cc1	0	9.2	0.3	1.1%	9	3
Cn1cnc2c(=O)oc3ccc(S(=O)(=O)N4CCN(c5ccccc5)CC4)cc3c21	49	.	-0.4	0.6%	.	.
O=C(Nc1ccc2c(c1)OCO2)c1cc(C2CCCCN2C(=O)CCc2ccccc2)on1 (stereo unspecified)	.	-1.5	-0.5	1.2%	-20	-12
NNC(=S)Nc1cccc(-c2n[nH]c(=S)o2)c1	8	-7.7	-0.2	4.3%	-24	-19
Cc1ccc(S(=O)(=O)N/N=C/c2ccc(OCC(=O)Nc3ccccc3Cl)cc2)cc1	-10	-4.0	1.8	0.0%	-18	-2
CNc1snc(C)c1C(=O)OC(C)C(=O)Nc1ccccc1 (stereo unspecified)	-10	13	-0.7	0.6%	-8	1
C[C@@H]1CCCCO[C@@H](CN(C)C(=O)Cc2ccccc2)[C@@H](C)CN([C@H](C)CO)C(=O)c2cc(NC(=O)C3CCCCC3)ccc2O1	-5	-7.8	-0.3	6.4%	4	-5
COc1ccc(OCCC(=O)OCC(=O)NC(=O)NC(C)C)cc1	-5	-1.1	-1.0	0.0%	5	2
COc1cc(C(=O)N/C(=C\c2cn(S(=O)(=O)N(C)C)c3ccccc23)C(=O)N2CCCC2)cc(OC)c1OC	18	3.3	1.3	1.6%	-5	-9
CC(C)NC(=O)c1onc(CSc2nc3ccccc3[nH]2)c1C(=O)NC(C)C	-15	-0.5	-0.6	0.9%	0	-37
CSc1nsc(NC(=O)Nc2ccccc2)n1	17	-2.4	4.4	22µM*	3	-10
Cc1c(NC(=O)COC(=O)/C=C/c2cccc(F)c2)c(=O)n(-c2ccccc2)n1C	6	-0.2	-0.5	0.3%	-8	5
OC(CNCc1ccc(F)cc1)(c1ccc(F)cc1)c1ccc(F)cc1	12	-0.9	3.1	.	11	-39
O=C(CSCCNS(=O)(=O)c1ccccc1)Nc1ccccc1	-11	-0.8	1.9	0.4%	4	22
CCOc1ccccc1N(C)C(=O)Cn1nc(Cc2cccnc2)c2ccccc2c1=O	-12	.	-0.7	0.4%	.	.
O=C(NC(c1ccc(-c2ccccc2)cc1)c1cnccn1)C1CCN(Cc2ccc3c(c2)OCO3)CC1 (stereo unspecified)	.	1.4	4.5	-0.7%	-28	-11
